2A StopGo – High Throughput Screening for Foot and Mouth Disease Virus Antivirals; human cells with a luciferase reporter of 2A StopGo recoding; control for the full effect not named in the record; Potency, µM (top dose mostly 57.9 µM), inactives show at the highest dose signal change, negative = less light; 1.2% of 410,000 active; AID 1159524, 2015; active = well fitted falling curve with a large enough effect; inconclusive = small, poorly fitted or top-dose-only effect; inactive = no such curve, though single readings can be large or run the other way; tested in HEK293T cells; also: % is scaled to controls: 0 for no effect and ±100 for the full control effect; nearly all actives have a fitted effect of over 45% in size; luciferase light after 4 h
MARV entry inh – qHTS for inhibitors of binding or entry into cells for Marburg Virus. Potency, µM (top dose mostly 37.8 µM), for inactives: at the highest dose activity change, negative = inhibition, actives largely listed as inhibitors. 1.8% of 300,000 active. Marburg virus pseudotyped entry inhibition, cell reporter; control for the full effect not named in the record; about a third of the inactives were read at about 46 µM. AID 540276, 2011; active = well fitted inhibition curve with a large enough effect; inconclusive = small, poorly fitted or top-dose-only effect, or effect the other way; inactive = flat fitted curve, though single readings scatter; tested in HEK293 cells; about a fifth of its hits are not listed in these tables; also: % is scaled to controls: 0 for no effect and ±100 for the full control effect; luciferase read-out
Lassa entry inh – qHTS for Inhibitors of binding or entry into cells for Lassa Virus; Lassa virus pseudotype entry inhibition, cell reporter; control for the full effect not named in the record; Potency, µM (doses to about 37.9 µM), for inactives: at the highest dose activity change, negative = inhibition, usual class: inhibitors; 1.2% of 300,000 active; AID 540256, 2011; active means well fitted inhibition curve with a large enough effect; inconclusive means small, poorly fitted or top-dose-only effect, or effect the other way; inactive means flat fitted curve, though single readings scatter; tested in HEK293 cells; also: % is scaled to controls: 0 for no effect and ±100 for the full control effect; nearly all actives have a fitted effect of over 50% in size; luciferase read-out
SARS PLP yeast – qHTS of Yeast-based Assay for SARS-CoV PLP. Potency, µM (doses to about 32.9 µM), without a hit: at the highest dose activity, positive = growth rescue. AID 485353, 2010. S. cerevisiae expressing SARS-CoV PLpro, growth rescue; control for the full effect not named in the record. 0.19% of 330,000 active; active means well fitted rising curve with a large enough effect; inconclusive means small, poorly fitted or top-dose-only effect; inactive means no such curve, though single readings can be large or run the other way; also: 0% is about no effect; nearly all actives have a fitted effect of over 55% in size; growth read by luminescence after 48 h
Cruzain inh noDet – qHTS Assay for Promiscuous and Specific Inhibitors of Cruzain (without detergent); Cruzipain (Trypanosoma cruzi), P25779; purified cruzain, Z-FR-AMC fluorescence, no detergent; Potency, µM, for inactives: max response, negative = inhibition, most hits filed as inhibitors; 2.3% of 200,000 active; AID 1476, 2009;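 also: plate controls were enzyme without inhibitor for no effect and buffer without enzyme for full effect; nearly all actives have a fitted effect of over 40% in size; top concentration of the series not given in the record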
Target sequence (P25779 123-467 limits assumed): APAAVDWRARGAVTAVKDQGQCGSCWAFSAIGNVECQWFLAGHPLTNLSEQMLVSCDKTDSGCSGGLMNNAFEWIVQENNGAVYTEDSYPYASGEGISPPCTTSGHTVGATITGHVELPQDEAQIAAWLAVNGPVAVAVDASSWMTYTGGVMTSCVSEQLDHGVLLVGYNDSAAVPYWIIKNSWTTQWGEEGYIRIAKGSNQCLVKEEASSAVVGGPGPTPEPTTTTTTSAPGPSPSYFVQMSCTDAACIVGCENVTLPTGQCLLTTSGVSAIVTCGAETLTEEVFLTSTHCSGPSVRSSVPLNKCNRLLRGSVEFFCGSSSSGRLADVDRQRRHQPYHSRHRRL
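Purified cruzain at 1.5 nM, pre-incubated 15 min with compound at room temperature in 100 mM sodium acetate pH 5.5, 5 mM DTT, 0.00005% Triton X-100. Reaction started with 2 uM Z-FR-AMC; AMC fluorescence increase over 60 s gives rate.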
NS1 function inh – qHTS Assay for Inhibitors of Influenza NS1 Protein Function; S. cerevisiae slowed by influenza A NS1, growth recovery by OD600; Potency, µM (doses to about 46.1 µM), for the others: top-dose activity, positive = more growth; 0.4% of 270,000 active; active means well fitted rising curve with a large enough effect; inconclusive means small, poorly fitted or top-dose-only effect; inactive means no such curve, though single readings can be large or run the other way; also: nearly all actives have a fitted effect of over 50% in size
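OD600 was taken as the measure of yeast growth restored by compound in an NS1-expressing S. cerevisiae strain. Cells had been washed out of glucose medium and diluted 1:100 into galactose -URA medium, pH 6.0.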
Cruzain Triton – qHTS Assay for Promiscuous and Specific Inhibitors of Cruzain (with detergent). Cruzipain (Trypanosoma cruzi), P25779. purified cruzain, Z-FR-AMC fluorescence, 0.01% Triton. Potency, µM, inactives show max response, negative = inhibition, usual class: inhibitors. 0.43% of 200,000 active. AID 1478, 2009;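 also: plate controls were neutral wells for no effect and buffer without enzyme for full effect; nearly all actives have a fitted effect of over 40% in size; top concentration of the series not given in the record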
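Read-out: AMC fluorescence (360 nm excitation, 450 nm emission), four reads over 2 min, first-to-third difference used. Conditions: cruzain 1.5 nM, Z-FR-AMC 2 uM, pH 5.5 acetate, 5 mM DTT, 0.01% Triton X-100.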
RE007 growth inh – qHTS Assay for Inhibitors of the HIV-1 protein Vpr. Potency, µM (titrated, usually from 92.2 µM), inactives show top-dose activity change, negative = less growth. 0.21% of 360,000 active. AID 651644, 2012. S. pombe RE007 Vpr strain, BacTiter-Glo ATP luminescence, 24 h; control for the full effect not named in the record; active = well fitted falling curve with a large enough effect; inconclusive = small, poorly fitted or top-dose-only effect; inactive = no such curve, though single readings can be large or run the other way;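 also: % is scaled to controls: 0 for no effect and ±100 for the full control effect; nearly all actives have a fitted effect of over 50% in size; the assay follows cell death caused by Vpr and the record does not say whether a fall means rescue or toxicity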
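Fission yeast strain RE007, carrying one chromosomally integrated HIV-1 vpr copy, was seeded at OD 0.01 in PMG+AL medium with 23 nL pinned compound. After 24 h at 30 °C and 99% humidity, viability was read by BacTiter-Glo luminescence.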
* = called active by the depositor; u = inconclusive; x = not tested or not shown; & = joins results of further samples; [ ] = another dose, or the depositor's remark. Unless noted, calls follow the shape of the dose curve; as a rule, active = well fitted curve in the direction sought with a large enough effect; inconclusive = small, poorly fitted or top-dose-only effect, or another doubt; inactive = no such curve, though single readings can be large; an effect the other way counts as inactive or inconclusive. Potency is read from the fitted curve at half-maximal effect. Hits appear at their usual frequency; overall some 4.8% were active at least once.

SMILES | 2A StopGo | MARV entry inh | Lassa entry inh | SARS PLP yeast | Cruzain inh noDet | NS1 function inh | Cruzain Triton | RE007 growth inh
Cc1cccc(NC(=O)CSc2nnc3[nH]c(=O)cc(C)n23)c1C | 3.1% | x | 17.9%[46.1 µM] | x | 8.6% | x | 1.4% | x
Cc1onc(-c2c(F)cccc2Cl)c1C(=O)OCC(=O)NCc1ccccc1 | -16.3% | u | -6.6% | -4.2% | x | x | x | -9.5%
COc1ccc(CCNC(=O)COC(=O)c2ccc(S(=O)(=O)N3CCCC3)cc2)cc1OC | 15.9% | 8.9%[46.1 µM] | 0.8%[46.1 µM] | 1.2% | x | x | x | -4.4%
Cc1c(C)c2cc3c4c(oc3c(C)c2oc1=O)CCCC4 | 8.0% | 11.2% | 22.1% | 4.3% | 3.7% | -11.8% | -6.2% | -12.8%
Clc1ccc(-c2nnc(CCc3ccccc3)o2)c(Cl)c1 | x | -5.6% | u | -1.8% | 3.7% | -50.3% | -0.8% | -19.0%
Cc1cc(C)cc(N2C(=O)NC(=O)/C(=C\c3cc(C)n(C)c3C)C2=O)c1 | -18.3% | 4.7%[46.1 µM] | -4.5% | -0.1% | x | 10.5% | x | 11.1%
COc1ccc(OC)c(S(=O)(=O)N2CCC(c3nc4ccccc4[nH]3)CC2)c1 | u | 5.6% | -22.1% | -6.7% | x | x | x | 4.6%
CCCCCN=C(N)N/N=C/c1c[nH]c2ccc(OC)cc12 | u | x | x | x | 25.0%&6.6% | x | -0.3%&-0.2% | -8.5%
Cn1c2c(c(=O)n(C)c1=O)C(c1cccc(F)c1)C(C#N)=C(N)O2 (stereo not given) | -4.0% | 3.2% | u | 0.5% | x | 4.0% | x | 3.4%
Cc1ccc(-c2noc(COc3ccc(Br)c(C)c3)n2)cc1 | 3.8% | 9.8%[46.1 µM] | 9.3%[46.1 µM] | x | 11.3% | x | -0.2% | x
O=C(/C=N/O)NCc1ccncc1 | 0.9% | 12.6% | 1.0% | u | -6.7% | 9.6% | 6.3% | 14.9%
CCOc1ccc(CNC(=O)COc2cc(=O)n(C)c3ccccc23)cc1 | 14.4% | u | -16.3%[46.1 µM] | x | 19.9% | x | 0.2% | x
COc1ccc(Cl)cc1NC(=O)Nc1cn(C)nc1C | 13.7% | -30.1%[14.2 µM] | 21.4% | 0.1% | x | 3.4% | x | 6.1%
OCc1nc2ccccc2n1C/C=C/c1ccccc1 | 8.8% | -3.4%[46.1 µM] | 29.8% | -2.1% | 0.8% | -4.9% | -2.7% | -4.4%
C=CCn1c(SCC(=O)NC(C)(C)C)nnc1-c1ccccc1O | -3.1% | 0.1% | -9.8% | u | 5.0% | 1.1% | 6.9% | -3.8%
COC(=O)c1[nH]c2cc(OC)ccc2c1NC(=O)c1nonc1C | -10.4% | u | 3.1% | 8.0% | u | 10.6% | 1.4% | 10.4%[3.69 µM]
O=C(Nc1ccc(Cl)cc1)Nc1ccc(C(=O)N2CCOCC2)cc1 | 27.9% | x | x | 0.4% | x | 2.8% | x | 4.6%
Cc1c(NC(=O)C23CC4CC(CC(Br)(C4)C2)C3)c(=O)n(-c2ccccc2)n1C | -3.4% | x | x | -0.5% | x | 6.9% | x | -13.4%
CCN(CCC#N)c1ccc(N2C(=O)CCCC2=O)cc1[N+](=O)[O-] | -8.3% | x | x | -0.8% | x | -0.7% | x | 16.5%
COc1ccc(CNS(=O)(=O)c2ccc3c(c2)N(C(C)=O)CCO3)cc1 | 27.5% | x | x | -0.9% | x | -2.4% | x | 5.9%
CCOC(=O)c1c(C)[nH]c(C)c1S(=O)(=O)N1CCCC(C(=O)NCc2ccc(C)cc2)C1 (stereo not given) | 10.0% | x | 10.1%[46.1 µM] | x | 6.5% | x | -1.1% | x
Cc1cc(C)nc(SCC(=O)N/N=C/C=C/c2ccccc2)n1 | -24.7% | -2.2% | 17.7% | -12.4% | -4.3% | 6.1% | -9.4% | -6.9%
COC(=O)c1ccccc1NC(=O)c1ccc2c(c1)OCCO2 | 18.8% | 2.4%[46.1 µM] | -2.6% | -6.6% | 2.2% | -99.0% | -2.5% | -24.8%
CC1(C)CC(=O)C(C(C2=C(O)CC(C)(C)CC2=O)c2cccc(O)c2)C(=O)C1 (stereo not given) | -11.6% | -24.5% | -25.5% | -1.0% | -3.2% | -33.1% | 0.6% | -10.8%
CC(=O)N1C(C(=O)O)Cc2c([nH]c3ccccc23)C1(C)C (stereo not given) | -4.0% | -1.2% | -0.4% | 5.2% | x | 28.8% | x | -8.4%
(more compounds)
SMILES | 2A StopGo | MARV entry inh | Lassa entry inh | SARS PLP yeast | Cruzain inh noDet | NS1 function inh | Cruzain Triton | RE007 growth inh
COc1cccc(C2=NN(C(=O)c3ccco3)C(c3ccco3)C2)c1 (stereo not given) | 14.2% | x | x | 1.2% | x | -22.1% | x | -13.2%
Cc1cccc(/C(N)=N/OC(=O)N2CCOCC2)c1 | x | 23.1µM* | 16.4µM* | -19.1% | 4.0% | -2.1% | 0.2% | -18.9%
Cc1cc(C)n2nc(C(=O)OCC(=O)Nc3ccc(F)cc3F)nc2n1 | -17.6% | 18.9% | u | x | x | x | x | -6.0%
CC(=O)NCCC(=O)N1CCCC(C(=O)c2ccc3c4c(cccc24)CC3)C1 (stereo not given) | -10.9% | -5.9%[46.1 µM] | u | 0.0% | x | -4.6% | x | -4.8%
CCCNC(=O)c1cn(CC)c2cc(N3CCN(C)CC3)c(F)cc2c1=O | -14.4% | u | -1.1% | -0.2% | 9.9% | 2.4% | -2.4% | -22.9%
CN1CCN(C(=O)/C=C/c2c(F)cccc2Cl)CC1 | -1.3% | x | x | -1.2% | x | 2.8% | x | -5.4%
NC(=O)CSc1ccc(F)cc1 | -3.3% | 4.4%[46.1 µM] | -6.8%[46.1 µM] | 2.3% | x | x | x | -17.3%
COc1ccc(-c2cc(C(=O)Nc3ccc(C(N)=O)cc3)c3ccccc3n2)cc1 | -9.1% | u | x | -0.7% | x | -8.6% | x | 24.3%
COc1cc(Cn2c(=O)sc3ccccc32)ccc1OC(C)C | -20.1% | 0.1%[46.1 µM] | 3.1%[46.1 µM] | x | 7.6% | x | -8.4% | x
CCCN(C(=O)COC(=O)C12CCC(=O)N1c1ccccc1S2)c1c(N)n(Cc2ccccc2)c(=O)[nH]c1=O (stereo not given) | -8.2% | x | x | -4.0% | x | -12.8% | x | -3.0%
Cc1ccc(/C=C2/C(=O)c3ccc(C(=O)O)cc3C2=O)o1 | 45.4%[activator] | u | u | 0.8% | x | 0.5% | x | 8.0%
COc1cccc(N2CCN(c3ccc4nnc(CCC(=O)Nc5cccc(C(C)=O)c5)n4n3)CC2)c1 | -4.8% | x | x | 0.0% | x | 0.6% | x | 0.0%
Cc1cc(OCC(=O)Nc2nc3c(s2)CCCC3)cc(C)c1Cl | -10.2% | 17.3%[46.1 µM] | 1.8%[46.1 µM] | x | -15.7% | x | -6.7% | x
O=C(Oc1ccc2c3c(c(=O)oc2c1)CCC3)c1ccccc1[N+](=O)[O-] | x | x | x | 7.4% | u | 3.6% | 1.2% | x
Cc1ccc(S(=O)(=O)N2CCC(=O)N(CCOCc3ccc(F)cc3)CC2)cc1 | -27.4% | -14.1% | -27.1% | -17.1% | 25.5% | -45.4% | 0.4% | 2.0%
CCOc1ccc(S(=O)(=O)N(CC(=O)N2CCc3ccccc32)Cc2ccco2)cc1 | -4.0% | u | u | -1.7% | -9.3% | -54.2% | -2.1% | 16.3%
O=C1C2C3C=CC(O3)C2C(=O)N1Cc1ccncc1 (stereo not given) | -8.7% | 12.4% | 0.6% | x | x | x | x | -5.3%
O=C(CN1C(=O)NC2(CCCC2)C1=O)OCCOc1ccc(Cl)cc1Cl | -11.0% | 16.1% | 6.0%[46.1 µM] | 1.0% | x | x | x | 19.6%
CC/C(=N\NC(N)=O)c1ccc(OC)c(OC)c1 | 9.7% | 5.6% | 19.6% | -0.8% | x | -1.7% | x | -15.8%
COc1ccc(NCc2ccc([N+](=O)[O-])s2)cc1 | 0.0% | 5.3% | 4.7% | -81.8% | -18.2% | -28.8% | -3.3% | u
Cc1ccc(O)c(NC(=S)NC(=O)COc2ccc(Br)cc2)c1 | -19.2% | -18.1%[46.1 µM] | u | -2.1% | x | 1.8% | x | 40.2%
O=C(Nc1ccccc1N1CCN(C(=O)c2ccccc2)CC1)c1ccc(Br)o1 | -14.6% | x | x | -9.7% | x | -65.7% | x | 31.2%
COc1cc(-c2cc(C(=O)NN3CCN(C)CC3)c3ccccc3n2)cc(OC)c1OC | x | 9.8% | -4.4% | 7.4% | 10.4% | 27.8% | -5.0% | x
CC1CCCCC1NC(=O)CCCn1c(=S)[nH]c2ccccc2c1=O (stereo not given) | -17.0% | 11.1%[46.1 µM] | -9.3% | -7.0% | x | x | x | 1.2%
CC(=O)c1cccc(N2C(=NC(=O)CCc3ccccc3)SC3CS(=O)(=O)CC32)c1 (stereo not given) | -12.4% | x | x | 25.7% | x | 7.0% | x | -0.3%
CCCOc1ccc(C(=O)N2CCN(c3ccc(N)cc3Cl)CC2)cc1 | -9.5% | -13.1% | -9.7% | -3.6% | u | 11.2µM* | -6.4% | 8.4%
CC(CC(=O)O)CC(=O)NNC(=O)c1cccc(Br)c1 (stereo not given) | -1.8% | -13.5% | 1.6%[46.1 µM] | 1.5% | x | x | x | 13.4%

Single records, as listed above. Values in the order: 2A StopGo	MARV entry inh	Lassa entry inh	SARS PLP yeast	Cruzain inh noDet	NS1 function inh	Cruzain Triton	RE007 growth inh
COc1cc(-c2cc(C(=O)NN3CCN(C)CC3)c3ccccc3n2)cc(OC)c1OC reads x	9.8%	-4.4%	7.4%	10.4%	27.8%	-5.0%	x
O=C1C2C3C=CC(O3)C2C(=O)N1Cc1ccncc1 (stereo not given) reads -8.7%	12.4%	0.6%	x	x	x	x	-5.3%
